Source: PubChem BioAssay
PINK1 modulator = changes PINK1 expression | PINK1 immunofluorescence, high-content cytometry, 24 h | Potency, µM (titrated, usually from 76.6 µM), inactives show at the top dose activation (PINK1 increase), most hits filed as activators | 410,000 compounds, 0.2% hits; active = well fitted activation curve with a large enough effect; inconclusive = small, poorly fitted or top-dose-only effect; inactive = flat fitted curve, though single readings scatter; cell line not stated here;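 note: potency is the fitted concentration of half-maximal effect; % of control where 0% means no effect; nearly all actives have a fitted effect of over 65% in size; a mitochondrial uncoupler was the plate control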
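PINK1 protein, normally rapidly degraded, was detected by immunofluorescence after 24 hour compound treatment of a stable cell line. Titration data (5 concentrations) came from laser-scanning cytometry, with CCCP-treated wells as controls.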
Menin-MLL FL inh = menin-MLL binding inhibition, fluorescein peptide. 290,000 tested, under 10 active. FP activity change, % at 61.4 µM. Fluorescence polarization, fluorescein-MLL peptide displacement from menin; inconclusive = falling polarisation curve, or a change in total fluorescence; inactive = total fluorescence flat and polarisation flat or rising; no compound was filed as active; the % refers to the polarisation; negative = inhibition;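 note: % of control where 0% means no effect; inhibitors lower the polarisation; unlabelled MLL peptide was the positive control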
gsp antag = gsp mutant antagonism | gsp-mutant cells, cAMP HTRF, 30 min; control for the full effect not named in the record | Potency, µM (top dose mostly 76.9 µM), inactives show at the highest dose activity change, negative = inhibition, hits mostly inhibitors | 340,000 compounds, 0.4% hits | AID 624288; active = falling curve of any shape with a large fitted effect; inconclusive = falling curve, mostly with a smaller effect; inactive = flat or rising curve; cell line not stated here;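 note: intracellular cAMP measured with PDE inhibitor Ro 20-1724 present during compound exposure; potency is the fitted concentration of half-maximal effect; % is set by controls: 0 for no effect and ±100 for the full control effect; nearly all actives have a fitted effect of over 65% in size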
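G418-selected cells were plated in DMEM/10% FBS for 16-24 h at 37C, then treated with compounds plus the PDE inhibitor […] (300 uM solution added) for 30 min at 37C. Intracellular cAMP was measured by HTRF after 30 min lysis at room temperature.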
ClpP mod = qHTS Assay for Activators of ClpP; ATP-dependent Clp protease proteolytic subunit (Bacillus subtilis (strain 168)), P80244; purified B. subtilis ClpP, FRET peptide cleavage, 20 min; Potency, µM (highest dose often 57.5 µM), without a hit: top-dose activity change, negative = active; 340,000 compounds, 1.9% hits; AID 651965, 2013; active = well fitted falling curve with a large enough effect; inconclusive = small, poorly fitted or top-dose-only effect; inactive = no such curve, though single readings can be large or run the other way; note: potency is the fitted concentration of half-maximal effect; the source files actives as falling curves though it sought activators and does not explain the sign; nearly all actives have a fitted effect of over 65% in size; many hits overshoot -100%
Target sequence (P80244 whole entry, looked up): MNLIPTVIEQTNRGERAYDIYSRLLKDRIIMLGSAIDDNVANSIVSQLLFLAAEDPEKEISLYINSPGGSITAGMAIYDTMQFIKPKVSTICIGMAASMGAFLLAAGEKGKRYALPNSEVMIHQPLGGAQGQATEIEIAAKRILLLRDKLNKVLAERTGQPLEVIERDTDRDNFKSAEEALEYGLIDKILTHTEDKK
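ClpP 10 microg/mL final, pH 8 Tris/KCl buffer with BSA, glycerol, Tween-20; compound pinned in; FRET-FV substrate; RT 20 min; Ex320/Em430; ΔFRET vs ADEP 5.8 microM, DMSO, no enzyme.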
D2 agonist = human D2 receptor agonism in beta-arrestin assay. activation, % (concentration not given with the values). 360,000 compounds, 0.084% hits. DiscoveRx PathHunter D2 beta-arrestin, luminescence, 90 min; 100% = 57 uM dopamine signal; in the data active = activation above about 40%; inconclusive = about 15% to 40%; inactive = below about 15%; note: the text of the record calls up to 30% inactive
Target sequence (P14416 whole entry, looked up): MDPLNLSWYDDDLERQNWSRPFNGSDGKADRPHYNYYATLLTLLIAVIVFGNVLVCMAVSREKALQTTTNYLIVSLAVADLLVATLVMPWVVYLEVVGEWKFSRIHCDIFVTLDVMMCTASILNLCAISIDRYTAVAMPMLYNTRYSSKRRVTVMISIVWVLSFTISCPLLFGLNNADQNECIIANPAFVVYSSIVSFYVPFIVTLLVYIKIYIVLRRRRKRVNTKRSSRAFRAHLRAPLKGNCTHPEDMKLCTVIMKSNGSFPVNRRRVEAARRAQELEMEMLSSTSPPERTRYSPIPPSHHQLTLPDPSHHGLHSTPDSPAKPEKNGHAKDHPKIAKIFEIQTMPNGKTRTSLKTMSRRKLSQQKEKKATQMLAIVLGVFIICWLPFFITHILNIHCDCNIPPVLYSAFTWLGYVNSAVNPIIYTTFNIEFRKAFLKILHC
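DiscoveRx PathHunter D2 beta-arrestin cells (2,100/well) attached overnight, then compound-stimulated 90 min at 37 C in HBSS/10 mM HEPES/0.1% Tween-20 buffer; beta-galactosidase complementation read by luminescence after 1 h at ambient temperature. Dopamine 57 uM final (EC100) as control.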
gsp ag = agonists of gsp mutant (McCune-Albright syndrome); gsp mutant cells, cAMP HTRF, 30 min; control for the full effect not named in the record; Potency, µM (doses to about 76.9 µM), without a hit: at the highest dose activation (cAMP increase), most hits filed as activators; 340,000 compounds, 0.13% hits; active = well fitted activation curve with a large enough effect; inconclusive = small, poorly fitted or top-dose-only effect, or another doubt; inactive = no such curve, though single readings can be large or run the other way; cell line not stated here;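 note: phosphodiesterase inhibitor Ro 20-1724 added with compounds to block cAMP breakdown; potency is the fitted concentration of half-maximal effect; nearly all actives have a fitted effect of over 60% in size; about a fifth of the inactives were tested at one dose only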
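Cells in DMEM/10% FBS with G418 were pretreated with compounds in DMSO plus […] (300 uM stock) for 30 min at 37C. cAMP was measured by HTRF (cAMP-d2 plus anti-cAMP antibody-K) after 30 min at room temperature.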
Sfp inh = blocks B. subtilis Sfp PPTase activity | Q9F4F7 | Biochemical Sfp PPTase activity, qHTS | Potency, µM, for the others: max response, negative = inhibition, hits mostly inhibitors | 310,000 compounds, 3.5% hits | AID 1490; active = well fitted inhibition curve with a large enough effect; inconclusive = small, poorly fitted or top-dose-only effect, or another doubt; inactive = no such curve, though single readings can be large or run the other way;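 note: the enzyme is Sfp with the accession as filed and its product quenches rhodamine fluorescence; potency is the fitted concentration of half-maximal effect; 0% = enzyme reaction without inhibitor and -100% = no enzyme wells; top concentration of the series not given in the record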
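Fluorescence-quenching assay: 15 nM Sfp-PPTase preincubated 15 min at room temperature with compound, then 5 uM rhodamine-CoA and 12.5 uM BHQ-2-labelled YbbR peptide added. Fluorescence (ex 525/em 598 nm) read at start and after 30 min; difference gives rate.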
Starred values were filed as active, the others as inactive; & = joins results of further samples; [ ] = dose if it differs, or a comment.

What do the screens show for `Cc1ccc(NC(=O)CCS(=O)(=O)c2cccc3nonc23)c(Br)c1`?
PINK1 modulator: 0.1%; Menin-MLL FL inh: -1.7; gsp antag: -5%; D2 agonist: -6.1; gsp ag: 7%[15.4 µM]; Sfp inh: 6%

Results for Cc1ccc(-c2c(C#N)c(N)n(-c3ccccc3C)c(=O)c2C#N)cc1 ?
PINK1 modulator: 1.4%; ClpP mod: -6.1%; D2 agonist: -1.8

What do the screens show for `O=C(c1cc2c(s1)CCCC2)N1CCN(S(=O)(=O)c2ccccc2)CC1`?
PINK1 modulator: -0.6%; gsp antag: -15%; ClpP mod: -2.4%; D2 agonist: -1.7; gsp ag: 7%

What do the screens show for `Cn1nc(-c2ccccc2)c(C(=O)Nc2ccc(Cl)cc2)c1Cl`?
PINK1 modulator: 0.8%; Menin-MLL FL inh: 8.7; gsp antag: -2%; ClpP mod: -1.1%; D2 agonist: -1.4; gsp ag: -1%; Sfp inh: 2%

Results for CC1(C)NC(=O)N(CC(=O)Nc2ccc(-n3cnnn3)cc2)C1=O ?
PINK1 modulator: -1.3%; gsp antag: 11%; D2 agonist: -0.2; gsp ag: -31%[inhibitor]

Results for COc1ccc(C(C(=O)NC2CCCC2)N(CCO)C(=O)Cn2nnc(-c3ccc(C)o3)n2)cc1 (stereo not drawn) ?
PINK1 modulator: 0.6%; Menin-MLL FL inh: -3.6; gsp antag: -2%; D2 agonist: -1.7; gsp ag: -35%[inhibitor]; Sfp inh: 8%

Results for CC#CC(=O)N1CCC(n2nccc2NC(=O)c2ccc3c(c2)OCO3)CC1 ?
PINK1 modulator: 0.7%; Menin-MLL FL inh: -0.4; gsp antag: 12%; ClpP mod: -0.2%; D2 agonist: -3.6; gsp ag: 0%; Sfp inh: 22%

What do the screens show for `O=C(Cn1c(-c2cncs2)nc2ccccc21)NC1CCCC1`?
PINK1 modulator: 0.6%; Menin-MLL FL inh: 0.2; gsp antag: 14%; ClpP mod: inconclusive; D2 agonist: -1.4; gsp ag: 19%; Sfp inh: 10%

What do the screens show for `CC(C)C[C@@H](C(=O)NCC1CCCO1)N1C(=O)N2CCc3c([nH]c4ccccc34)[C@@]2(C)C1=O` (stereo partly drawn)?
PINK1 modulator: 2.3%; Menin-MLL FL inh: 0.7; gsp antag: -13%; ClpP mod: 1.8%; D2 agonist: 0.3; Sfp inh: 13%

Results for Cc1cc(Br)ccc1NC(=O)C1CSC2(C)CCC(=O)N12 (stereo not drawn) ?
PINK1 modulator: 1.8%; gsp antag: 10%; ClpP mod: -14%; D2 agonist: -0.6; gsp ag: -41%[inhibitor]

What do the screens show for `NC(=O)C1CCN(CC(=O)Nc2ccccc2N2CCOCC2)CC1`?
PINK1 modulator: 0.7%; Menin-MLL FL inh: 13; gsp antag: 3%; ClpP mod: -1.6%; D2 agonist: -4.4; gsp ag: -13%; Sfp inh: 16%

How did CC(C)[C@H](NC(=O)c1ccco1)C(=O)N(C)Cc1c(F)cccc1Cl do in these assays?
PINK1 modulator: 0.2%; Menin-MLL FL inh: -8.1; gsp antag: 11%; ClpP mod: -2.3%; D2 agonist: -0.1; gsp ag: 19%[15.4 µM]; Sfp inh: -3%

What do the screens show for `C#CC(=O)N(c1ccc(OC)c(OC)c1)C(C(=O)NC1CCCC1)c1cccs1` (stereo not drawn)?
PINK1 modulator: -3.5%; Menin-MLL FL inh: 3.7; gsp antag: -14%; ClpP mod: -20%; D2 agonist: -2.9; gsp ag: -55%[inhibitor]; Sfp inh: 10%

What do the screens show for `CC(=O)N1CCN(CCS(=O)(=O)c2ccc(Br)cc2)CC1`?
PINK1 modulator: -0.9%; gsp antag: 5%; ClpP mod: 2.3%; D2 agonist: -6.4; gsp ag: 3%

What do the screens show for `Cc1cc(C)c(-c2cc(C(=O)Nc3c(C)n(C)n(-c4ccccc4)c3=O)[nH]n2)c(O)c1`?
PINK1 modulator: 4.5%; Menin-MLL FL inh: -0.6; gsp antag: 11%; ClpP mod: 1.1%; D2 agonist: -2.7; gsp ag: -13%; Sfp inh: -5%

How did CCOC(=O)C1CCN(S(=O)(=O)c2c[nH]c(=O)[nH]c2=O)CC1 do in these assays?
PINK1 modulator: -1.9%; gsp antag: 1%; D2 agonist: -5.7; gsp ag: -8%[15.4 µM]

What do the screens show for `CC(=O)Nc1ccc(S(=O)(=O)N2CCN(C(=O)c3ncoc3-c3cccc(C)c3)CC2)cc1`?
PINK1 modulator: 1.6%; Menin-MLL FL inh: -0.3; gsp antag: inconclusive; D2 agonist: -1.7; gsp ag: 15%[15.4 µM]; Sfp inh: 9%

Results for COC(=O)C[C@@H]1C[C@@H]2c3cc(NC(=O)NC4CCCCC4)ccc3O[C@@H]2[C@H](CO)O1 ?
PINK1 modulator: 1.0%; ClpP mod: -3.2%; D2 agonist: 0.4; gsp ag: 1%

Results for Cc1c(Cl)cccc1NC(=O)CCCN1C(=O)CCC1=O ?
PINK1 modulator: 0.4%; Menin-MLL FL inh: -0.8; gsp antag: 16%; ClpP mod: -1.2%; D2 agonist: -2.9; gsp ag: 23%; Sfp inh: 17%

How did Cc1ccc(Cl)cc1NC(=O)NCc1cccnc1 do in these assays?
PINK1 modulator: -0.4%; Menin-MLL FL inh: -2.2; gsp antag: 10%; ClpP mod: 2.0%; D2 agonist: -16; gsp ag: -6%; Sfp inh: 0%

What do the screens show for `COc1ccc(/C=N\NC(=O)c2ccccc2OC)cc1COc1ccccc1C`?
PINK1 modulator: 6.6%; Menin-MLL FL inh: 2.5; gsp antag: inconclusive; ClpP mod: inconclusive; D2 agonist: 5.0; gsp ag: 0%; Sfp inh: -9%

What do the screens show for `COc1nc(-c2ccccc2)nnc1-c1ccccc1`?
PINK1 modulator: -1.2%; Menin-MLL FL inh: -2.9; gsp antag: -16%; D2 agonist: -4.4; gsp ag: 23%[15.4 µM]; Sfp inh: inconclusive

How did O=C(CNCc1cccs1)Nc1cc(S(=O)(=O)N2CCCC2)ccc1Cl do in these assays?
PINK1 modulator: 0.2%; Menin-MLL FL inh: -0.8; gsp antag: 20%; ClpP mod: -0.5%; D2 agonist: inconclusive; gsp ag: -24%; Sfp inh: -1%

What do the screens show for `CC(=O)c1ccc(N2CCN(C(=O)Cn3cnc(S(=O)(=O)N4CCCCC4)c3)CC2)cc1`?
PINK1 modulator: 0.0%; gsp antag: 3%; ClpP mod: -7.5%; D2 agonist: -4.2; gsp ag: 7%; Sfp inh: 26%

How did C[C@H](OC(=O)n1ccnc1)[C@@H]1O[C@@]2(C)CCC[C@@H]1O2 do in these assays?
PINK1 modulator: -0.5%; gsp antag: 11%; ClpP mod: 1.0%; D2 agonist: -0.3

How did CCOC(=O)c1c(-c2ccco2)csc1NC(=O)CSc1nnc(N)s1 do in these assays?
PINK1 modulator: -2.3%[38.3 µM]; Menin-MLL FL inh: 14; gsp antag: -20%; ClpP mod: 0.6%; D2 agonist: 0.6; gsp ag: -55%; Sfp inh: 25µM*

What do the screens show for `CCCOc1ccc(-c2nnn(CC(=O)N3CCC(C)CC3)n2)cc1`?
Menin-MLL FL inh: -0.4; gsp antag: -18%; ClpP mod: -0.6%; D2 agonist: 0.2; gsp ag: 14%; Sfp inh: 8%

How did COc1ccc(NC(=O)CCN2CCCC(C)C2)cc1 (stereo not drawn) do in these assays?
PINK1 modulator: 0.6%; Menin-MLL FL inh: 8.5; gsp antag: 9%; ClpP mod: 1.7%; D2 agonist: -4.1; gsp ag: -61%; Sfp inh: 11%

What do the screens show for `COc1cc(OC)cc(-c2c(-c3ccc(F)cc3)c3cc(-c4cccc5[nH]ccc45)ccc3n2C)c1`?
PINK1 modulator: 6.6%; gsp antag: 6%; ClpP mod: 4.0%; D2 agonist: -0.8; gsp ag: -20%

What do the screens show for `CCn1ncc(/C=C/C(=O)NCc2cnn(C)c2C)c1C`?
PINK1 modulator: 1.0%[38.3 µM]; Menin-MLL FL inh: -1.8; gsp antag: 6%; ClpP mod: 0.3%; D2 agonist: -0.4; gsp ag: -46%[inhibitor]; Sfp inh: 3%

Results for O=C(O)c1cccc(S(=O)(=O)Nc2cccc3ccccc23)c1 ?
PINK1 modulator: -0.3%; Menin-MLL FL inh: 0.5; gsp antag: 3%; D2 agonist: -1.0; gsp ag: 5%; Sfp inh: 3%

How did CCC(C)NC(=O)CNC(=S)N(CCCN1CCOCC1)Cc1cccs1 (stereo not drawn) do in these assays?
PINK1 modulator: 2.0%; Menin-MLL FL inh: 2.3; gsp antag: 9%; ClpP mod: -1.3%; D2 agonist: 0.7; gsp ag: -8%[15.4 µM]; Sfp inh: 9%

How did CNC(=O)c1ccc(OC2CSC2)cc1 do in these assays?
PINK1 modulator: -1.3%; Menin-MLL FL inh: 0.8; gsp antag: 3%; ClpP mod: 0.4%; D2 agonist: -3.4; gsp ag: -53%[inhibitor]; Sfp inh: 14%

How did COc1cccc(C2C(C(C)=O)=C(O)C(=O)N2CCc2c[nH]c3ccccc23)c1 (stereo not drawn) do in these assays?
PINK1 modulator: 0.4%; Menin-MLL FL inh: 1.6; gsp antag: -25%; ClpP mod: -4.4%; D2 agonist: -2.3; gsp ag: 6%; Sfp inh: 4%

How did CCCCCCc1ccc(N2C[C@H](CCCCC)[C@@H](CC(=O)NCc3ccccc3)C2=O)cc1 do in these assays?
PINK1 modulator: 7.1%; Menin-MLL FL inh: -5.3; gsp antag: 5%; ClpP mod: -1.6%&-4.2%; D2 agonist: -1.0; gsp ag: 5%; Sfp inh: 1%

How did Cc1ccc2c(Cl)c(C(=O)NCC(c3ccco3)N3CCCC3)sc2c1 (stereo not drawn) do in these assays?
PINK1 modulator: 4.5%; gsp antag: 0%; ClpP mod: 0.0%; D2 agonist: -1.2; gsp ag: 2%; Sfp inh: -10%
